KOR beta-arrestin-1: KOR agonists, beta-arrestin recruitment, primary screen, cell-based, luminescence, uHTS (AID 1777); Kappa-type opioid receptor (Homo sapiens); KOR beta-arrestin recruitment, luminescence; higher % means a stronger effect; one-dose activation, % at 10 µM; EC50 in µM for titrated hits; hit rate 0.02% among 280,000; in the data active means activation above about 50%, passing the limit was not always enough; further: a part of the inactive calls stands beside numbers as strong as those of hits
Myeloid diff MLP: induction of myeloid progenitor differentiation, primary screen, cell-based, flow cytometry, MLPCN library. ER-HoxA9 myeloid progenitors, lysozyme-GFP differentiation. calls only at 10 µM. hit rate 1% among 360,000. AID 624256, 2012;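 active means normalized GFP-positive differentiation at or above the plate's own cutoff, the solvent-only control mean plus 3 SD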;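 further: cells exposed to compound for four days before flow analysis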
NTR1 agonist: agonists of NTR1, primary screen, imaging, U2OS cells, beta-arrestin-GFP, high content (AID 493036) | NTR1-U2OS beta-arrestin-GFP spot imaging, agonist mode | activation, % at 20 µM | hit rate 0.17% among 330,000;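 active means activation at or above 40% of the spot to cytoplasm intensity ratio, with at least 20 cells analyzed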;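 further: 0% = DMSO without peptide and 100% = 100 nM NTR1 peptide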
Target sequence (P30989 whole entry, looked up): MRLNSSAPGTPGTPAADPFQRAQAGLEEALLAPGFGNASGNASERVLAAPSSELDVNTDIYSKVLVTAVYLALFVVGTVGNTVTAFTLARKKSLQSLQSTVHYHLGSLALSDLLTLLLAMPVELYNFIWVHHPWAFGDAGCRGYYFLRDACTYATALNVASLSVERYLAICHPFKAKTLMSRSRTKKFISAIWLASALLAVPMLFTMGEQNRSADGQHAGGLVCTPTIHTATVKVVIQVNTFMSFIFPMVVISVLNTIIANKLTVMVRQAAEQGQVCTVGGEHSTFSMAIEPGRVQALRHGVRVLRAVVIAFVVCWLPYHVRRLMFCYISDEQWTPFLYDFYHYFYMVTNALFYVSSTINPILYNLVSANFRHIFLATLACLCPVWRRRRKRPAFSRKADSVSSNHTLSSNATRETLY
GPR55 beta-arrestin: GPR55 agonists via beta-arrestin recruitment, primary screen, imaging, U2OS cells, beta-arrestin-GFP redistribution (AID 1961); U2OS GPR55 beta-arrestin-GFP redistribution imaging; higher % means a stronger effect; hit rate 0.048% among 290,000; G-protein coupled receptor 55 (Homo sapiens); activation, % at 10 µM; hits with a dose series show EC50 in µM;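 active means activation above 40% with more than 50 cells counted in the well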;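 further: U2OS osteosarcoma cells stably expressing GPR55 and beta-arrestin-GFP; plate controls were DMSO negative control for no effect and LPI positive control for full effect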
KOR beta-arrestin-2: KOR antagonists, beta-arrestin recruitment, cell-based, luminescence, uHTS (AID 1778). KOR beta-arrestin recruitment, luminescence, antagonist mode; higher % means a stronger effect. hit rate 0.091% among 290,000. one-dose inhibition, % at 10 µM; IC50 in µM for titrated hits. Kappa-type opioid receptor (Homo sapiens); in the data active means inhibition above about 50%; further: strong numbers were not always called active
T cell modulator: modulators of CD8 T cell-vesicle binding, primary screen, mouse 2C CD8+ T cells, flow cytometry | 2C CD8+ T cell-vesicle binding; hits give low values | calls only at 7 µM | hit rate 0.068% among 330,000;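 active means response, share of CD8 T cells binding vesicles, and their 90th percentile fluorescence all below set limits, cut at about 80% in these data, passing the limit was not always enough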
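Assay system: 2C TCR transgenic mouse naive CD8+ T cells, MACS-purified | Read-out: CD8+ gate FL2 mean fluorescence as % of same-row positive control | Signal: High-throughput flow cytometry with anti-B7-1 and anti-CD8 staining | Timing: Binding step 1.5 h, 37 °C, antibody labelling 20 min, ice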
GPR55 antagonists: GPR55 antagonists blocking LPI-driven arrestin recruitment, primary screen, imaging, U2OS, beta-arrestin-GFP, LPI agonist (AID 2013). G-protein coupled receptor 55 (Homo sapiens). U2OS GPR55 beta-arrestin-GFP translocation imaging, LPI antagonism; higher % means a stronger effect. inhibition, % at 10 µM, or IC50 in µM where a hit was titrated. hit rate 0.13% among 290,000;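 active means spots per cell inhibited over 60%, with over 100 cells counted and total cytoplasm intensity under 500,000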;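 further: U2OS cells stably carrying GPR55 and arrestin-GFP stimulated by 5 µM LPI near EC80; imaged beta-arrestin-GFP aggregate spots per cell after agonist stimulation; plate controls were LPI-stimulated DMSO wells for no effect and DMSO wells without LPI for full effect; some results filed as inactive read as strong as hits; confirmed hits need IC50 under 10 µM and bright autofluorescent wells are also inconclusive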
T cell modulator vesicle-bound %: also measured in T cell modulator; calls as there; double positive events, %; measured here: CD8+ vesicle-bound cell fraction;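 binding gate set so that unloaded-vesicle control wells show 10% double positive cells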
NTR1 agonist cell count 20 µM: recorded beside NTR1 agonist, whose call it bears; cell count; measured here: cell count, cytotoxicity flag
Myeloid diff MLP GFP+ MAC1+ %: recorded beside Myeloid diff MLP, whose call it bears; GFP+ MAC1+ double positive, %; measured here: differentiation confirmed by MAC1 staining
* hit, by the source's call.

Screening Cc1ccc(C(=O)OCC(=O)c2ccccc2)cc1 returned KOR beta-arrestin-1 -3.8%, Myeloid diff MLP inactive, NTR1 agonist 0.8, GPR55 beta-arrestin -0.1%, KOR beta-arrestin-2 -1%, T cell modulator inactive, GPR55 antagonists 14%, T cell modulator vesicle-bound % 66, NTR1 agonist cell count 20 µM 82 and Myeloid diff MLP GFP+ MAC1+ % 0.2.
Screening Cc1csc2ncnc(N3CCN(C(=S)Nc4ccc(C(F)(F)F)cc4)CC3)c12 returned KOR beta-arrestin-1 -4.8%, Myeloid diff MLP inactive, NTR1 agonist 3.4, GPR55 beta-arrestin 0.2%, KOR beta-arrestin-2 30%, T cell modulator inactive, GPR55 antagonists 6%, T cell modulator vesicle-bound % 32, NTR1 agonist cell count 20 µM 47 and Myeloid diff MLP GFP+ MAC1+ % 0.9.
For c1ccc(N2CCN(c3ncnc4sc5c(c34)CCC5)CC2)cc1 the results were KOR beta-arrestin-1 7.3%, Myeloid diff MLP inactive, NTR1 agonist 15, GPR55 beta-arrestin 0.2%, KOR beta-arrestin-2 -35%, T cell modulator inactive, GPR55 antagonists 27%, T cell modulator vesicle-bound % 10, NTR1 agonist cell count 20 µM 48 and Myeloid diff MLP GFP+ MAC1+ % 0.0.
`S=C(Nc1ccc(Cl)c(Cl)c1)NC1CCCCC1` gave KOR beta-arrestin-1 17%, Myeloid diff MLP inactive, NTR1 agonist 8.4, GPR55 beta-arrestin 0.2%, KOR beta-arrestin-2 26%, T cell modulator inactive, GPR55 antagonists -7%, T cell modulator vesicle-bound % 23, NTR1 agonist cell count 20 µM 88 and Myeloid diff MLP GFP+ MAC1+ % 0.1.
`Cc1ccc(OCCN2CCN(c3ncnc4sc(C)c(C)c34)CC2)cc1` gave KOR beta-arrestin-1 -2.1%, Myeloid diff MLP inactive, NTR1 agonist 4.8, GPR55 beta-arrestin 0.5%, KOR beta-arrestin-2 -3%, T cell modulator inactive, GPR55 antagonists 1%, T cell modulator vesicle-bound % 35, NTR1 agonist cell count 20 µM 78 and Myeloid diff MLP GFP+ MAC1+ % 4.1.
CC(NC(=O)OCc1ccccc1)C(=O)Oc1cc2oc(=O)cc(-c3ccccc3)c2cc1Cl (stereo not given) was read as KOR beta-arrestin-1 -1.7%, Myeloid diff MLP inactive, NTR1 agonist 0.6, GPR55 beta-arrestin 0.1%, KOR beta-arrestin-2 23%, T cell modulator inactive, GPR55 antagonists 8%, T cell modulator vesicle-bound % 40, NTR1 agonist cell count 20 µM 57 and Myeloid diff MLP GFP+ MAC1+ % 0.3.

Quoted at random: three entries already listed.
For c1ccc(N2CCN(c3ncnc4sc5c(c34)CCC5)CC2)cc1 the results were KOR beta-arrestin-1 7.3%, Myeloid diff MLP inactive, NTR1 agonist 15, GPR55 beta-arrestin 0.2%, KOR beta-arrestin-2 -35%, T cell modulator inactive, GPR55 antagonists 27%, T cell modulator vesicle-bound % 10, NTR1 agonist cell count 20 µM 48 and Myeloid diff MLP GFP+ MAC1+ % 0.0.
CC(NC(=O)OCc1ccccc1)C(=O)Oc1cc2oc(=O)cc(-c3ccccc3)c2cc1Cl (stereo not given) was read as KOR beta-arrestin-1 -1.7%, Myeloid diff MLP inactive, NTR1 agonist 0.6, GPR55 beta-arrestin 0.1%, KOR beta-arrestin-2 23%, T cell modulator inactive, GPR55 antagonists 8%, T cell modulator vesicle-bound % 40, NTR1 agonist cell count 20 µM 57 and Myeloid diff MLP GFP+ MAC1+ % 0.3.
`S=C(Nc1ccc(Cl)c(Cl)c1)NC1CCCCC1` gave KOR beta-arrestin-1 17%, Myeloid diff MLP inactive, NTR1 agonist 8.4, GPR55 beta-arrestin 0.2%, KOR beta-arrestin-2 26%, T cell modulator inactive, GPR55 antagonists -7%, T cell modulator vesicle-bound % 23, NTR1 agonist cell count 20 µM 88 and Myeloid diff MLP GFP+ MAC1+ % 0.1.

Screens: PubChem BioAssay, several laboratories

An excerpt; the hit share may differ from the screen's.
